# NPYLR7 agonist: activates Aedes aegypti NPYLR7 receptor; HEK293T NPYLR7/Galpha15, GCaMP6s calcium fluorescence; activation, % at 10 µM; 270,000 tested, 0.15% active; in the data active = activation above about 40%;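 also: 0% = vehicle and 100% = reference agonist at the receptor; some compounds past the cut are filed as inactive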
# NPYLR7 agonist max-min: recorded beside NPYLR7 agonist, whose call it bears; activation, %; measured here: Max-Min RFU normalised activation; some inactives read as strong as hits;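 span of the calcium signal over five minutes; 0% = vehicle and 100% = native peptide agonist; compound fluorescence can raise it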
# * hit, by the source's call; & = joins results of further samples.
SMILES,NPYLR7 agonist,NPYLR7 agonist max-min
O=C(CCc1nnc(-c2ccc(-c3ccccc3)cc2)o1)NC[C@@H]1CCCN2CCCC[C@H]12,1,-1
CCC1c2cccn2CCN1C(=O)CC(=O)Nc1cc(C)cc(C)c1 (centres undefined),19,10
O=C(Nc1ccc(F)c(Cl)c1)N1CCSC1c1ccc(F)cc1 (centres undefined),-4,0
Cc1cc(C)cc(CC(=O)N2CCC2(C)C(=O)NS(=O)(=O)Cc2ccccc2)c1 (centres undefined),1,-1
CC1CCC(NC(=O)CCn2cnc3ccccc3c2=O)CC1 (centres undefined),-2,-4
Cc1ccccc1N1C(=O)CN(Cc2c(C)n(C)n(-c3ccccc3)c2=O)CC1C (centres undefined),0,-2
N#Cc1cc2c(cc1C#N)N1CCCc3cccc(c31)O2,8,11
COC(=O)c1ccc2c(=O)n(Cc3ccc(C(=O)NCCCN4CCOCC4)cc3)c(=S)[nH]c2c1,1,0
O=C1c2cccc3cccc(c23)C(=O)N1CCCl,2,-3
COCCCN(CC(=O)N(Cc1cccn1Cc1ccccc1)C1CCCCC1)C(=O)c1ccc(F)cc1,2,11
CC(=O)N1CCCN(C(=O)C(Sc2ccccc2)C(C)C)CC1 (centres undefined),1,12
Cc1ccc([N+](=O)[O-])cc1NCC(=O)N1CCN(S(=O)(=O)c2ccc3c(c2)CCC3)CC1,4,5
CCc1nc(C)cc(-c2c(Cl)cccc2OC)n1,-5,-8
O=C(CCN1CCCCCC1=O)NC1CCCN(Cc2ccccn2)C1 (centres undefined),3,3
O=S(=O)(c1ccccc1)N1CC2ON=C(c3cccnc3)C2C1 (centres undefined),-1,-1
CCN(CC1CCCCO1)C(=O)c1cccc(-n2cnnc2)c1 (centres undefined),-4,-5
CCCCOC(=O)C1CSC(CC(C)C)N1C(=O)COc1ccc(Cl)cc1 (centres undefined),27,22
CCc1nc2ccccc2n1CCC(=O)O,-7&-1,-12&6
O=C1CN(C(=O)c2cccc(Oc3cccc(C(F)(F)F)c3)c2)CCN1,8,2
CCc1ccc(C2c3cccn3CCCN2Cc2cc(Cl)ccc2O)cc1 (centres undefined),3,15
COc1ccc(N2CCCCn3c2nc2c3c(=O)[nH]c(=O)n2C)cc1,17,5
Cc1nonc1C(=O)N1CCC(N2CCCC(C(=O)N3CCCC3)C2)CC1 (centres undefined),1,-6
Cc1ccc(C2c3ccsc3CCN2C(=O)c2ccc(Br)cc2)cc1 (centres undefined),5,4
O=C(NCC1CCN(Cc2ccccc2F)C1)c1cc(Cl)no1 (centres undefined),-6,-9
Nc1nc(N)nc(CSc2nnc(-c3cccs3)n2C2CC2)n1,0,16

# The closing 5 compounds of the part before come first, to join the parts:
SMILES,NPYLR7 agonist,NPYLR7 agonist max-min
COc1ccc(N2CCCCn3c2nc2c3c(=O)[nH]c(=O)n2C)cc1,17,5
Cc1nonc1C(=O)N1CCC(N2CCCC(C(=O)N3CCCC3)C2)CC1 (centres undefined),1,-6
Cc1ccc(C2c3ccsc3CCN2C(=O)c2ccc(Br)cc2)cc1 (centres undefined),5,4
O=C(NCC1CCN(Cc2ccccc2F)C1)c1cc(Cl)no1 (centres undefined),-6,-9
Nc1nc(N)nc(CSc2nnc(-c3cccs3)n2C2CC2)n1,0,16
CCN1CCN(Cn2c(=S)oc3ccccc32)CC1,-3,-3
Cc1ccc(-c2nc(COC(=O)c3nnn(-c4ccc(C)cc4)c3C)c(C)o2)cc1,12,8
CCCc1noc(CCC(=O)N2CCN(S(=O)(=O)c3cccc(Br)c3)CC2)n1,1,2
CC(C)N1CCN(Cc2ccon2)CC1CCO (centres undefined),-6,-4
CCOC(=O)C1CCN(C(c2cccc(C)c2)C2Sc3nc(CC)nn3C2=O)CC1 (centres undefined),0,7
O=S(=O)(c1cccc(F)c1)N1CCN(c2nc3nccc(-c4ccc(Cl)c(Cl)c4)n3n2)CC1,4,3
NS(=O)(=O)c1ccc(Cn2cnnc2)cc1,11,10
COC(=O)Nc1ccccc1OCc1nccn1CC(F)(F)F,4,2
NC(=O)c1cccc(NC(=O)c2ccc(Cl)c(Cl)c2)c1,7,7
COc1ccc(C2NC(C(=O)O)Cc3c2[nH]c2ccccc32)c(OC)c1OC (centres undefined),3,3
OCCC1CN(Cc2ccc3ccccc3n2)CCN1C1CCCCC1 (centres undefined),-1,-4
CCSC1=C(C#N)C2(CCCC2)C(C#N)C(N)=N1 (centres undefined),-3,-3
CCOC(=O)c1cc(-c2cccc(NC(=O)c3oc4ccccc4c3C)c2)n(-c2ccccc2F)n1,26,10
CC(c1cccs1)N(C)Cc1ccc(C#CC(C)(C)O)s1 (centres undefined),-4,-5
Cc1nc2cc(=O)[nH]n2c(C)c1CC(=O)Nc1cccc2c1ccn2C,4,6
CCc1nnc(NC(=O)CSc2nc3c([nH]c4ccccc43)c(=O)n2CCOC)s1,0,0
CCn1ccnc1P(=O)(c1ccccc1)N1CCOCC1 (centres undefined),3,2
Cc1ccc(-n2nc(C(C)(C)C)cc2NC(=O)CN(Cc2ccccc2)C(=O)Nc2ccccc2C(F)(F)F)cc1,-2,12
CN(CC1CCCNC1)C(=O)c1ccc(CSc2ncccn2)o1 (centres undefined),1,2
O=C(NC1CCOc2ccccc21)C12CC3CC(CC(O)(C3)C1)C2 (centres undefined),-2,-5
CCSc1nc2c(cnn2CCO)c(=O)[nH]1,3,2
CN(C)C(=O)COc1ccccc1CN(C)C1CCCc2ccccc21 (centres undefined),0,-9
CC(Oc1ccccc1)C(=O)N1CCN(C(c2ccc(F)cc2)c2ccc(F)cc2)CC1 (centres undefined),-4,2
CC1=C[C@@H](CNC(=O)NC2CCCCC2)[C@H](C(C)C)C[C@H]1CC(=O)O,-9,-15
O=C1C(=O)N(C2CCCC2)C(=O)N1CC1CCCCC1,1,4
# Additional records follow.
SMILES,NPYLR7 agonist,NPYLR7 agonist max-min
Nc1nc(=Nc2ccccc2)n2c(n1)sc1ccccc12,-8,-11
CCC(C)NC(=O)c1cc(NC(=O)c2ccccc2Br)ccc1N1CCc2ccccc2C1 (centres undefined),-1,15
COc1ccc(C(=O)N2CCN(CC3CCOC(C)(C)C3)CC2)cc1 (centres undefined),11,8
CC(=O)Nc1cccc(-c2cc3c(cn2)nc(NCc2cccc(C)c2)n3C)c1,7,0
Cc1ccccc1CS(=O)Cc1ccc(S(=O)(=O)N(C)C)o1 (centres undefined),1,3
CCOc1nn(CC)cc1C(=O)Nc1ccc(Oc2ccccc2)cc1,4,9
CC(C)=CC(=O)NCCOc1ccccc1F,4,3
O=C(Nc1ccc(F)c(F)c1F)c1ccc(=O)n(Cc2ccccc2)c1,15,4
CC1(C(=O)NS(=O)(=O)c2ccccc2)CCN1C(=O)C1(c2ccccc2)CCCC1 (centres undefined),2,0
CCOC(=O)C1(Cc2ccc(Cl)cc2)CCN(C(=O)C2CCOC2)CC1 (centres undefined),6,7
NC(=O)CO[C@@H]1CO[C@H]2[C@@H]1OC[C@@H]2NC(=O)N1CCOCC1,-12,-17
COc1ccc(NC(=O)CC(=O)N2CCN(C3CCCC3)C(=O)C2)c(OC)c1,12,9
CCCCCN(CC(=O)N(Cc1cccn1Cc1cccc(OC)c1)C(C)CC)C(=O)C(C)C (centres undefined),-8,1
O=c1cc(CN2CCN(c3ncccn3)CC2)nc2ccc(Br)cn12,8,11
CC(=O)Nc1sc2c(c1-c1nc3ccccc3s1)CCN(C(C)C)C2,22,20
CC(C)c1nccc(CN2CCc3[nH]cnc3C2Cc2ccccc2)n1 (centres undefined),8,-1
CC(=O)c1cc(C(=O)N2CCCC(CCC(=O)NCc3ccc(F)c(F)c3)C2)cs1 (centres undefined),4,3
CC(=O)N1CCC(Oc2ccc(Cl)cc2C(=O)NCc2cnc3ccccn23)CC1,4,5
O=[N+]([O-])c1ccc(NN=C2C3C4CC5C2C2C3CC4C52)c([N+](=O)[O-])c1 (centres undefined),5,3
COc1ccc(CCN(C)c2cc(C(C)(C)C)nc(SCc3ccc(C(=O)N4CCOCC4)o3)n2)cc1OC,-2,4
COc1ccc(-n2nc(C(C)(C)C)c3c2N(CC(=O)NCc2ccccn2)C(=O)CSC3c2ccc(OC)c(OC)c2)cc1 (centres undefined),13,15
c1ccc(-n2nnnc2Sc2nnnn2C2CCCC2)cc1,0,3
Cc1nc(C(C)N(C)Cc2cccc(CN3CCOCC3)c2)c(C)s1 (centres undefined),1,-2
CC(=O)[C@@H]1C[C@H](CC(=O)NC(c2ccc(F)cc2)c2ccc(SCc3ccccc3)cc2)C1(C)C (some centres undefined),5,-3
O=[N+]([O-])c1ccc(NN=Cc2cc(Br)ccc2OC(F)F)c([N+](=O)[O-])c1,-9,-12

# A draw from above in order of molar mass, falling.
SMILES,NPYLR7 agonist,NPYLR7 agonist max-min
CC1(C(=O)NS(=O)(=O)c2ccccc2)CCN1C(=O)C1(c2ccccc2)CCCC1 (centres undefined),2,0
Cc1nc(C(C)N(C)Cc2cccc(CN3CCOCC3)c2)c(C)s1 (centres undefined),1,-2
c1ccc(-n2nnnc2Sc2nnnn2C2CCCC2)cc1,0,3
Nc1nc(=Nc2ccccc2)n2c(n1)sc1ccccc12,-8,-11

# Next results
SMILES,NPYLR7 agonist,NPYLR7 agonist max-min
O=C(CSc1n[nH]c(CCC2CCCC2)n1)N1CCN(c2ccccn2)CC1,7,1
NC(=O)c1ccsc1NC(=O)CSc1nncs1,3,9
COc1ccc(C(=O)CC2(O)C(=O)Nc3ccc(Cl)cc32)cc1OC (centres undefined),2,-3
CCCCn1ccc2c(cnc3nc(-c4cccnc4)nn32)c1=O,-3,-2
Cc1ccc(Cn2c(C)c(C(=O)NCc3cccs3)sc2=O)cc1,-1,-4
COCCCNC(=O)NCc1ccc(OC(F)(F)F)cc1,2,2
CC1(C(=O)Nc2ccccc2F)CCN1C(=O)Cc1cc(F)ccc1F (centres undefined),10,8
Cc1ccc(C2=Nc3nnnn3C(c3cccc(Br)c3)C2)cc1C (centres undefined),9,6
O=c1cc[nH]c2c(Cl)c(Cl)ccc12,-3,-4
CC1(C)OCCN2C(=O)OC3(C)CCC1C23C (centres undefined),1,-1
O=c1c2c3c(sc2ncn1Cc1cccc2ccccc12)CCCC3,-2,-6
CCSCCOC(=O)C1=C(C)NC(=O)NC1c1ccccc1OC (centres undefined),-3,-7

# Part of the list above in a different format:
# Second line of a record – NPYLR7 agonist | NPYLR7 agonist max-min
- COC(=O)Nc1ccccc1OCc1nccn1CC(F)(F)F
 : 4 | 2
- NC(=O)c1cccc(NC(=O)c2ccc(Cl)c(Cl)c2)c1
 : 7 | 7
- COc1ccc(C2NC(C(=O)O)Cc3c2[nH]c2ccccc32)c(OC)c1OC (centres undefined)
 : 3 | 3

# Single entries from the list.
# NC(=O)c1ccsc1NC(=O)CSc1nncs1 in NPYLR7 agonist: 3
# CC1(C)OCCN2C(=O)OC3(C)CCC1C23C (centres undefined) in NPYLR7 agonist max-min: -1

# Assay outcomes deposited in PubChem BioAssay by Fisher Drug Discovery Resource Center.

# A portion of the library, so the mix of outcomes need not match the whole.
